Assay outcomes (PubChem)
T cruzi inh: blocks replication of Trypanosoma cruzi; T. cruzi beta-gal in NIH3T3, luminescence, 90 h; inhibition, % (concentration not given with the values); 300,000 compounds, 1.4% hits;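 active = mean inhibition across valid replicates above about 55%, limit read from the data; inconclusive = mean below that limit but half or more replicates reach it; inactive = mean below it, under half of replicates reach it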;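 note: signal also drops with host cell toxicity which is not excluded here; 0% = plate median of DMSO wells and 100% = zero luminescence signal; higher percent means less beta-gal luminescence so fewer parasites; stock transfer was 50 nL into about 50 µL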
UCH37 DUB inh: inhibitors of human deubiquitinating enzyme UCH37; purified proteasome/UCH37, Ub-AMC cleavage fluorescence; inhibition, % (test concentration not listed); 330,000 compounds, 0.33% hits; AID 588478;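 active = mean of two replicates above 20%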;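 note: 0% = compound-free wells with enzyme and 100% = wells lacking proteasome; stock transfer was 100 nL into about 20 µL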
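assay system = human UCH37 enzyme supplied as purified proteasome complex | amount = proteasome at 0.15 nM in the dispensed enzyme solution | schedule = 30 min compound-proteasome preincubation then 25 min substrate reaction, room temperature | measured by = fluorescence, ex 355 nm, em 460 nm | benchmarks = no-proteasome wells (full inhibition) and compound-free wells (no inhibition)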
Beta apoptosis: beta cell apoptosis inhibition. 300,000 compounds, 0.8% hits. INS-1E cytokine-induced death, ATP luminescence, 48 h; percent of positive-control rescue, neutral wells zero. protection from apoptosis, % (no concentration beside the values);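 active = all replicates at 75% or more, or half of them and the mean; inconclusive = half reach 75% but not the mean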;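 note: 0% = cytokine-treated negative control wells and 100% = positive control rescue; higher means more ATP so stronger rescue from cytokine killing; wells of about 40 µL received 100 nL stock; the first replicate is given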
A1 inh: inhibitors of the anti-apoptotic protein A1, read as caspase activation. MEF A1-2A-BIM cells, Caspase-Glo 3/7 luminescence, 3 h; percent of clofoctol response, vehicle zero. caspase activation, % (test concentration not listed). 330,000 compounds, 0.066% hits. AID 2462;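 active = over half of replicate activation scores above 10%, or exactly half above 10 with the replicate mean above 10; inconclusive = replicate mean below 10 yet half the replicates above 10; inactive = over half of replicates below 10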;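 note: wells of about 30 µL received 50 nL stock; many hits fall short of the cut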
LANA-H2B inh: blocks KSHV LANA binding to histone H2A/H2B. cell-free LANA-H2A/H2B peptide, fluorescence polarization. Q9QR71. inhibition, % (concentration not given with the values). 320,000 compounds, 0.6% hits; in the data active = inhibition mostly above about 10%, no sharp cut-off; inactive = mostly below about 6.7%;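 note: stock transfer was 7.5 nL into about 10 µL; 0% = median of vehicle wells and 100% = median of positive control wells; one replicate is shown; the record names a cut of 25% in any replicate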
Target sequence (Q9QR71 whole entry, looked up): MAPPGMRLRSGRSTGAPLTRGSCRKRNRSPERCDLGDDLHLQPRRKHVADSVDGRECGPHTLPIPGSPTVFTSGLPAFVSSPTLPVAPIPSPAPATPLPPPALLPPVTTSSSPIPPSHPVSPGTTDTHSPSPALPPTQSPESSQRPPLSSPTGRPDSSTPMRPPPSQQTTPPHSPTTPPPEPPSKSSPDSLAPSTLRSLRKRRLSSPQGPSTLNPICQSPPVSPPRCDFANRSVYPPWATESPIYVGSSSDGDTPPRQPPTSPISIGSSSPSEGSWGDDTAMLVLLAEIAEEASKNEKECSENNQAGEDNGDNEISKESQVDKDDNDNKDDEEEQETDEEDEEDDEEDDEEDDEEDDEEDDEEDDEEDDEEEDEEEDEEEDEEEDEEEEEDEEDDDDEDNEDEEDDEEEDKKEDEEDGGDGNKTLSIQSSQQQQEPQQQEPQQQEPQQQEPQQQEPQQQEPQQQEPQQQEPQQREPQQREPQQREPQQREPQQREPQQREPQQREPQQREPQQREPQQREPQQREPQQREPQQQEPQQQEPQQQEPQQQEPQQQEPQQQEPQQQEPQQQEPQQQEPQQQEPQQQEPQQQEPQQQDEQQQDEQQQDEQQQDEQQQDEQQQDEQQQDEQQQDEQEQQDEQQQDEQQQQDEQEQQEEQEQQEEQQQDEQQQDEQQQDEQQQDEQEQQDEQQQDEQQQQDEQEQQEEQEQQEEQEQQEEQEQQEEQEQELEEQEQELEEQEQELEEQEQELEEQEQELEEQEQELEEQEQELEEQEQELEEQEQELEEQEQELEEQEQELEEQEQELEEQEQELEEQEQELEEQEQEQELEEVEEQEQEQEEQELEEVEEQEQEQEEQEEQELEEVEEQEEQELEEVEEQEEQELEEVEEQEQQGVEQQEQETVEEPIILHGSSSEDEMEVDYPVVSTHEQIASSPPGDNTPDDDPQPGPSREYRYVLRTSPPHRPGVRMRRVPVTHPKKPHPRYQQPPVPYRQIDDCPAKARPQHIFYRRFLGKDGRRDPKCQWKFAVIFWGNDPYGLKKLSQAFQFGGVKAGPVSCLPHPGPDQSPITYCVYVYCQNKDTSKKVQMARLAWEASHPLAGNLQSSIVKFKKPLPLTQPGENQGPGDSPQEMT
RanGTP-Impb inh: disruptors of Ran-importin-beta complex formation – biochemical, FRET, CFP-Ran, YFP-importin-beta, homogeneous, primary screen; 300,000 compounds, 1.1% hits; cell-free CFP-Ran/YFP-importin-beta FRET ratio; inhibition, % (concentration not given with the values);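 active = most replicates above 15%; inconclusive = exactly half above 15%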;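 note: 0% = DMSO wells and 100% = Ran loaded with GDP instead of GTP; wells of about 40 µL received 100 nL stock; the first replicate is given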
Calb FLC: C. albicans growth modulation with fluconazole | C. albicans CaCi-2 (fluconazole-resistant clinical isolate) + fluconazole, Alamar Blue growth, 48 h | growth inhibition, % (concentration not given with the values) | 300,000 compounds, 0.57% hits | AID 1979;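 active = most replicates above 75%; inconclusive = exactly half above 75%; inactive = most below 75%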;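 note: all wells also contain fluconazole at 8 µg/ml as a sub-toxic cotreatment; 0% = median of DMSO wells and 100% = median of geldanamycin control wells; wells of about 8 µL received 7.5 nL stock; the first replicate is given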
Beta2AR agonist: activates human beta-2 adrenergic receptor causing internalization; P07550; Am2.2-beta2AR cells, FAP receptor internalization, flow cytometry; reference of the scale not given here; response, % (concentration not given with the values); 340,000 compounds, 0.43% hits; AID 504454;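 active = response above a set limit, near 3 SD of response in nonfluorescent compounds, cut at about 42% in these data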;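 note: stock transfer was 100 nL into about 11 µL; a reference agonist was the positive control; negative values mostly stem from fluorescent compounds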
* hit, by the source's call; i = inactive; ? = inconclusive; nt = no result given.

SMILES	T cruzi inh	UCH37 DUB inh	Beta apoptosis	A1 inh	LANA-H2B inh	RanGTP-Impb inh	Calb FLC	Beta2AR agonist
COc1ccc(-n2c(=S)[nH]c3cc(C(=O)NCCCN4CCCC4=O)ccc3c2=O)cc1OC	-9	3.3	-3	-1.0	5.8	-3.7	5	1
CC(=O)c1nn(-c2cccc(C)c2)cc1C(=O)c1cccc(Br)c1	nt	3.1	2	0.4	4.5	1.0	16	7
CC(NC(=O)COc1ccccc1)C(=O)NCc1ccc(S(N)(=O)=O)cc1 (stereo not given)	nt	-0.7	-2	-0.9	4.1	nt	nt	7
COc1ccc(CCC(C)NCC2CCCCC2)cc1 (stereo not given)	-5	-0.5	-7	0.2	-4.1	1.1	-27	17
CCc1ccc(NC(=O)C(=O)N/N=C(\C)CC(=O)Nc2ccc(OC)cc2)cc1	2	nt	-6	0.5	-2.4	?	9	5
COc1ccc(C2/C(=C(/O)c3ccc(Br)cc3)C(=O)C(=O)N2C)cc1OC (stereo not given)	-9	13	-5	0.9	-3.4	6.7	-14	9
COc1ccc(COc2ccc(C3C(S(=O)(=O)c4ccccc4)CON3C)cc2OC)cc1 (stereo not given)	1	3.0	-7	0.4	-4.3	?	4	-2
O=[N+]([O-])c1cc(-c2ccc(C(=S)N3CCOCC3)o2)ccc1Cl	-20	21*	-1	0.3	-5.3	-9.4	2	0
Cc1cccc(N2CCN(S(=O)(=O)c3c(C)nc4scc(C)n4c3=O)CC2)c1C	11	-2.9	15	-0.1	1.7	-0.2	1	-2
OCCOCCOCCn1c2ccccc2c2ccccc21	-9	-0.7	nt	1.1	-0.6	-1.3	17	4
O=C(COc1ccccc1[N+](=O)[O-])OC1CCS(=O)(=O)C1 (stereo not given)	4	4.9	-9	-0.3	1.2	7.3	0	8
O=C(O)CC(NC(=O)c1ccc2c(c1)OCO2)c1cccc([N+](=O)[O-])c1 (stereo not given)	-17	2.4	11	0.7	-1.6	2.6	2	-4
CN(CC(=O)Nc1cccc(F)c1)C(=O)C1CCN(C(=O)c2ccc(Cl)cc2)CC1	nt	nt	1	1.6	-0.7	nt	nt	-5
O=C(O)CC1NC(=O)N(C2CCCCC2)C1=O (stereo not given)	10	-0.6	-3	0.5	1.1	?	-1	1
O=C(NCc1ccccn1)C(C(=O)c1cccc([N+](=O)[O-])c1)n1cc(Cl)ccc1=O (stereo not given)	-12	1.4	-2	1.7	-0.1	2.2	5	-5
COC(=O)c1[nH]c2ccc(C)cc2c1NC(=O)CN1CCN(Cc2ccccc2)CC1	17	-23	2	0.0	1.5	-1.7	7	13
Cn1c(=O)[nH]c(=O)c2c1nc(N1CCc3ccccc3C1)n2CCSc1nc2ccccc2s1	-21	0.4	-8	-0.1	0.5	11	-6	-6
O=C(Nc1ccc(F)cc1F)C1CCCN(c2ncnc3c2nc2n3CCCCC2)C1 (stereo not given)	-1	4.5	2	-0.2	4.4	-3.1	-4	-9
O=c1oc2ccccc2c(O)c1Cc1cc(Cl)c2cccnc2c1O	-11	-6.7	6	0.4	5.7	10	84*	11
Cc1ccc(CSCC(=O)N(C)CC(=O)Nc2cccc(F)c2)cc1	-3	0.0	-7	-1.0	0.5	-1.8	-7	-1
CCOC(=O)c1c(N)sc(C(=O)N2CCCCCC2)c1C	-11	1.7	-10	-0.9	2.1	4.4	-5	0
CCC1(O)c2ccccc2-c2ncccc21 (stereo not given)	-7	0.2	-1	0.0	0.5	1.3	-1	-7
Cc1cc([N+](=O)[O-])nn1CC(=O)Nc1nccs1	-2	nt	-4	1.4	nt	1.3	-32	4
COCCn1c(C)cc(C2=NNC(=Nc3ccc(Cl)cc3Cl)SC2)c1C	1	5.6	0	0.7	0.4	-3.1	-4	-14
COc1ccc(N(C)C(=O)c2oc(=O)c3ccccc3c2-c2ccc(C)cc2)c(OC)c1	5	1.1	-3	0.1	1.1	-0.9	20	6
COc1ccc(OC)c(CCNC(=O)c2ccc(CS(=O)Cc3cccc(Cl)c3)o2)c1 (stereo not given)	4	2.9	-2	0.3	1.2	1.0	-1	-7
CCOC(=O)C1=C(N)OC2=C(C(=O)CC(C)(C)C2)C1c1ccc(C)s1 (stereo not given)	-9	1.6	-2	-0.2	9.1	-0.9	4	4
Cc1ccc(S(=O)(=O)N2C(=O)CCC2C(=O)Nc2ccc3c(c2)OCCO3)cc1 (stereo not given)	-1	3.8	-6	0.3	1.1	2.2	6	7
O=C(CN1CCCCC1)N1CCN(S(=O)(=O)c2ccccc2)C1	-7	-1.2	-4	0.7	7.5	0.4	-7	5
Cc1cc(C)nc(SCc2cc(=O)c(OC(=O)c3ccc(Br)o3)co2)n1	-4	2.0	-4	0.1	-0.9	?	4	-4
NC(=O)c1c(NC(=O)c2cccnc2Cl)sc2c1CCCC2	11	5.0	-1	0.2	-1.5	4.8	53	-19
Cc1cccc(N2CCN(S(=O)(=O)c3c(C)[nH]c(C)c3C(=O)N3CCCC3)CC2C)c1 (stereo not given)	3	5.8	-6	-0.2	-1.9	?	-7	0
CCCCn1cnc2c1c(=O)n(CC(=O)c1cc(C)n(C)c1C)c(=O)n2CC(C)C	13	1.0	-1	-0.1	-0.2	5.9	-12	-2
O=C(Nc1ccc(Cl)cc1C(F)(F)F)c1ccc(Cl)cc1	12	1.0	10	-0.3	0.4	6.1	-6	1
CCOC(=O)C1(Cc2cccc(F)c2)CCN(Cc2cnc(C)s2)CC1	8	1.3	-8	-0.4	3.3	?	2	10
C[C@H](NC(=O)N1CCn2c1nc1ccccc12)C(=O)N1CCCCC1	-6	2.9	2	-0.3	3.0	0.5	-13	-5

In the list so far, 2 contain an aryl thioether with sulfur outside any ring:
SMILES	T cruzi inh	UCH37 DUB inh	Beta apoptosis	A1 inh	LANA-H2B inh	RanGTP-Impb inh	Calb FLC	Beta2AR agonist
Cn1c(=O)[nH]c(=O)c2c1nc(N1CCc3ccccc3C1)n2CCSc1nc2ccccc2s1	-21	0.4	-8	-0.1	0.5	11	-6	-6
Cc1cc(C)nc(SCc2cc(=O)c(OC(=O)c3ccc(Br)o3)co2)n1	-4	2.0	-4	0.1	-0.9	?	4	-4

The list goes on.
SMILES	T cruzi inh	UCH37 DUB inh	Beta apoptosis	A1 inh	LANA-H2B inh	RanGTP-Impb inh	Calb FLC	Beta2AR agonist
COc1ccc(C)cc1NC(=O)C1CCCN(S(=O)(=O)c2ccc(-n3cnnn3)cc2)C1 (stereo not given)	11	2.5	-2	-0.8	5.0	?	15	13
Cc1ccnc(NC(=O)COc2ccc(Cl)cc2)n1	7	6.3	-7	0.0	-0.9	-3.9	8	-1
COCCCNC(=O)CCSc1ccc(Cl)cc1	-6	1.9	nt	-0.1	-1.5	-0.6	22	0
O=Nc1c(-c2cccc([N+](=O)[O-])c2)nc2ncccn12	20	nt	14	0.2	5.9	0.9	94*	nt
Cc1ccc(C2Nc3ccccc3C(=O)N2CCN2CCNC2=O)cc1 (stereo not given)	-14	i	-3	0.0	-2.3	1.4	-6	-5
Cc1cc(C)nc(NC(=O)CCC2CCCC2)c1	3	4.4	-10	-0.7	-0.5	0.0	-18	-2
CCOc1ccccc1NC(=S)NCCc1ccccc1	24	2.7	2	-0.1	-2.2	0.3	23	-3
CN(C1CCS(=O)(=O)C1)S(=O)C12CC3CC(CC(C3)C1)C2 (stereo not given)	-1	0.9	-10	1.3	4.6	-0.9	-18	2
C=CCNC(=O)c1onc(CSc2ccncc2)c1C(=O)NCC=C	-14	-0.5	6	-0.5	3.5	-1.7	12	-3
CC1CC(C)CN(S(=O)(=O)c2ccc(NC(=O)CCNC(=O)c3ccc([N+](=O)[O-])cc3)cc2)C1 (stereo not given)	nt	0.2	3	0.1	3.3	nt	nt	-6
COc1ccccc1CNC(=S)Nc1cc(C)ccc1C	-6	-1.6	0	-0.6	-0.4	-1.6	-6	0
COc1ccc(C(=O)NCC(C)NC(=O)c2ccc(OC)c(Br)c2)cc1Br (stereo not given)	9	1.5	nt	?	0.7	1.1	1	2

Compounds from the list above with two or more sulfur atoms (3):
SMILES	T cruzi inh	UCH37 DUB inh	Beta apoptosis	A1 inh	LANA-H2B inh	RanGTP-Impb inh	Calb FLC	Beta2AR agonist
Cc1cccc(N2CCN(S(=O)(=O)c3c(C)nc4scc(C)n4c3=O)CC2)c1C	11	-2.9	15	-0.1	1.7	-0.2	1	-2
Cn1c(=O)[nH]c(=O)c2c1nc(N1CCc3ccccc3C1)n2CCSc1nc2ccccc2s1	-21	0.4	-8	-0.1	0.5	11	-6	-6
CN(C1CCS(=O)(=O)C1)S(=O)C12CC3CC(CC(C3)C1)C2 (stereo not given)	-1	0.9	-10	1.3	4.6	-0.9	-18	2

(cont.)
SMILES	T cruzi inh	UCH37 DUB inh	Beta apoptosis	A1 inh	LANA-H2B inh	RanGTP-Impb inh	Calb FLC	Beta2AR agonist
CN(C)C(=S)NC(=O)C12CC3(C)CC(C)(CC(C)(C3)C1)C2	-5	4.7	-4	-0.4	0.9	0.5	0	6
Cc1ccc(-n2nc(CC#N)c(C#N)c2N)cc1Cl	-10	6.7	nt	-0.2	-4.4	3.5	?	0
Cc1ccc(OCCNC(=O)C(C)SCC(=O)Nc2ccc(F)cc2)cc1 (stereo not given)	nt	-1.3	-5	0.2	1.0	nt	nt	3
COc1ccc(Nc2cc(C(=O)NCc3ccco3)c3ccccc3n2)c(OC)c1	3	nt	3	-0.2	3.2	3.8	18	10
Cc1ccccc1C(=O)NN1CCOCC1	-9	1.6	4	1.0	10	11	-5	-2
Cc1cccn2c(=O)c(C(=O)NC3CCCCC3C)c(O)nc12 (stereo not given)	7	-29	nt	0.5	-2.4	4.7	11	-4
O=S(=O)(c1ccc(Oc2ccc(Cl)cc2)nc1)N1CCOCC1	2	0.9	-6	-0.4	-0.5	-0.9	-2	-9
Cc1cc(C)c(S(=O)(=O)c2ccccc2C)c(OCCN(C)C)n1	-25	1.8	-1	1.0	0.1	2.5	-18	5
COc1ccccc1COCC(O)CNCC1(N2CCCCC2)CCCCC1 (stereo not given)	-5	-0.4	-1	0.9	3.0	-0.4	-2	0
CN(CCCOc1ccccc1Br)Cc1ccccc1	39	-0.5	-1	0.1	-4.1	-0.2	-12	3
Cc1cc2c(nn1)CCC/C2=N\O	5	nt	1	0.2	1.1	2.0	-1	-1
CCOC(=O)c1cc2c(ccn2C)n1CC(=O)N1C(C)CCCC1C (stereo not given)	24	0.6	2	-0.3	1.4	5.2	-2	2
CCOc1ccc(NC(=O)Nc2ccc(Cc3ccncc3)cc2)cc1	49	4.4	39	1.4	-1.4	1.8	15	6
S=C(NCCCN1CCOCC1)NCCCN1CCOCC1	-25	2.3	1	0.5	-0.7	-1.3	-13	9
CCOC(=O)C(/C=C(\C#N)C(=O)OCC)=C(/N)N1CCN(c2ccccc2)CC1	9	8.3	-2	0.1	1.8	0.1	-3	0
O=[N+]([O-])c1ccc(OCCO)nc1	4	3.1	nt	-0.1	-5.0	-3.7	1	-3
COc1ccccc1S(=O)(=O)Cc1ccc(C(=O)NCc2ccc(C)cc2)o1	5	-3.5	4	0.4	-0.4	1.7	-5	-6
CCC1CCc2c(sc(NC(C)=O)c2C#N)C1 (stereo not given)	15	-0.2	1	1.2	-4.6	-3.8	3	-8
